Screening results as filed in PubChem BioAssay.
UCH37 DUB inh: inhibitors of human UCH37 deubiquitinase, primary screen, biochemical, Ub-AMC cleavage, fluorescence; inhibition, % (concentration not given with the values); purified proteasome/UCH37; hit rate 0.33% among 330,000;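 active = mean of two replicates above 20%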;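 note: 0% = compound-free wells with enzyme and 100% = wells lacking proteasome; stock transfer was 100 nL into about 20 µL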
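system = Proteasome-associated human UCH37 deubiquitinase | amount = 0.15 nM proteasome as dispensed | medium = pH 7.4 Tris-HCl (50 mM) with ovalbumin, ATP-MgCl2, DTT | incubation = 30 min preincubation with enzyme, 25 min cleavage at room temperature | detection = AMC fluorescence 355/460 nm | read-out basis = percent inhibition | controls = no-proteasome and no-compound wells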
HNF4A DNA FP: change in binding of human HNF4A to DNA, primary screen, biochemical, fluorescence polarization, FITC-DNA | AID 1224865, 2016 | activity change, % at 10 µM | 1 h | hit rate 0.3% among 360,000 | Hepatocyte nuclear factor 4-alpha (Homo sapiens), P41235; in the data active = activity change above about 30%, passing the limit was not always enough;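 note: controls were the assay level and a saturating level of protein; the project sought stronger binding though the title names inhibitors; some compounds called inactive have numbers as strong as hits; positive values seem to mean higher polarization but the record does not say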
E coli growth: E. coli growth inhibition, primary screen, OD600; Escherichia coli growth, 23 h; active compounds read low; OD600 absorbance (test concentration not listed); hit rate 0.21% among 330,000; AID 1053175, 2014;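 active = OD600 absorbance below the run mean of sample wells minus 3.6 SD, in any replicate, cut at about 0.56 in these data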;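 note: stock transfer was 300 nL into about 60 µL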
rRNA inh HTS: reduced GFP signal of wild-type E. coli, primary screen, bacterial rRNA inhibitor project, GFP/RFP fluorescence, OD600, single point; AID 720706, 2013; hit rate 1.6% among 350,000; GFP signal change (wild-type ribosome), % (no concentration beside the values); E. coli WT GFP vs humanized-ribosome RFP mutants, 24 h; active compounds read low; DMSO median 0, no signal -100;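 active = significant combined selectivity score with lowered wild-type GFP, culture density cut under 30%, mutant RFP and density less affected; inactive = any of these conditions unmet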; note: one replicate is shown; some compounds called inactive have numbers as strong as hits
ALR H2O2 inh: inhibitors of human ALR sulfhydryl oxidase, primary screen, biochemical, H2O2 detection, HRP-luminol luminescence, single point; FAD-linked sulfhydryl oxidase ALR (Homo sapiens), P55789; purified ALR, DTT oxidation; inhibition, % (concentration not given with the values); hit rate 3.8% among 290,000; AID 485317, 2010;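 active = mean and each replicate at 75% or more; inconclusive = only one of the two met; inactive = neither met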;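 note: stock transfer was 7.5 nL into about 7.5 µL; 0% = neutral wells and 100% = wells with inactivated enzyme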
Target sequence (P55789 whole entry, looked up): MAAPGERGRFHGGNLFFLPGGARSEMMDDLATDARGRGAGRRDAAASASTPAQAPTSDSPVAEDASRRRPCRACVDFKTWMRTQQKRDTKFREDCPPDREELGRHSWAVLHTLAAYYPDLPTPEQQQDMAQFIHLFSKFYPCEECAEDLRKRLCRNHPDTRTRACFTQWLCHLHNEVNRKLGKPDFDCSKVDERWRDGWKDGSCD
FGF22 binding: binders of human FGF22 protein, primary screen, FGF22 synaptogenesis inhibitor project, biophysical, thermal shift, single point. Fibroblast growth factor 22 (Homo sapiens), Q9HCT0. recombinant FGF22 thermal shift, SYPRO orange fluorescence; percent of sucrose octasulfate shift, DMSO zero. calls only at 9.99 µM. hit rate 1.5% among 340,000;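 active = melting point raised past a set limit in the mean and every replicate; inconclusive = no clear call; three in four hits are not shown here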
Target sequence (Q9HCT0 whole entry, looked up): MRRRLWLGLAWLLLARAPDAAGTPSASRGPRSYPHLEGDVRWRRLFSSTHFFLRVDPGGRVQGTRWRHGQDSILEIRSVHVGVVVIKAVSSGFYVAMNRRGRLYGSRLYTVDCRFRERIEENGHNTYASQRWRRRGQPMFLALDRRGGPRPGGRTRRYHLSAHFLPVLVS
B2AR ag: beta2AR agonists driving receptor internalization, primary screen, cell-based, FAP fluorogen, flow cytometry | Beta-2 adrenergic receptor (Homo sapiens), P07550 | Am2.2-beta2AR cells; reference of the scale not given here | response, % (test concentration not listed) | hit rate 0.43% among 340,000 | AID 504454, 2011;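 active = response above a set limit, near 3 SD of response in nonfluorescent compounds, cut at about 42% in these data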;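 note: stock transfer was 100 nL into about 11 µL; a reference agonist was the positive control; negative values mostly stem from fluorescent compounds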
Target sequence (P07550 whole entry, looked up): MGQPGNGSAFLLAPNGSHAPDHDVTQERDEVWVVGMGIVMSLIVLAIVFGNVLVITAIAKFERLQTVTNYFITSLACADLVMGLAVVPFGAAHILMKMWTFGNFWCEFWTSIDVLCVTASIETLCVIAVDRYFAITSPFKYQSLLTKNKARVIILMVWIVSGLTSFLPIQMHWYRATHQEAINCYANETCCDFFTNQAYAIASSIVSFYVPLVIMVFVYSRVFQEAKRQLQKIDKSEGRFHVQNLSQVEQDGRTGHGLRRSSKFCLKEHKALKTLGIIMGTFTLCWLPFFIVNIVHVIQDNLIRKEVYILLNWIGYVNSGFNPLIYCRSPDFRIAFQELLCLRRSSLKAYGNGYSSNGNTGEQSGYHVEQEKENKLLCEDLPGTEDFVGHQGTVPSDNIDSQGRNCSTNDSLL
rRNA inh HTS OD600: further read-out of rRNA inh HTS, marked with its call; OD600 change, %; measured here: OD600 growth;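 optical density of the mix in the first replicate; 0 = DMSO median and -100 = no signal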
rRNA inh HTS RFP: recorded beside rRNA inh HTS, whose call it bears; RFP signal change, %; measured here: RFP humanized mutant strains;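 first replicate; 0 = DMSO median and -100 = no signal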
Numbers without * were called inactive; i = inactive; u = inconclusive; x = not tested or not shown; & = joins results of further samples. This is a subset, so the mix of outcomes need not match the whole.

SMILES	UCH37 DUB inh	HNF4A DNA FP	E coli growth	rRNA inh HTS	rRNA inh HTS OD600	rRNA inh HTS RFP	ALR H2O2 inh	FGF22 binding	B2AR ag
Cc1cccc(CC(=O)Nc2ccc(C(=O)N3CCCCC3)cc2)c1	-1.0	-1.3	0.66	-4	-2	3.3	-5	i	-4
CCCCS/C(N)=N/N=C/c1cc(C)ccc1O	x	3.3	x	x	x	x	1	x	-1
CC(C)Nc1nc(NC(C)C)nc(N(C)C(N)=O)n1	4.2	3.7	0.68	x	x	x	-1	x	-6
CCCCc1cc(=O)oc2cc(C)cc(OCC(=O)NC(Cc3ccc(Cl)cc3)C(=O)O)c12 (stereo not drawn)	-76	1.9	0.75	x	x	x	x	i	-4
CCC(=O)NC(=S)Nc1ccc(-c2nc3ccc(C)cc3s2)cc1	-4.5	3.7	0.72	x	x	x	u	x	-11
COC(=O)C1=C(C)N(C)C(=O)NC1c1cc2c(cc1[N+](=O)[O-])OCO2 (stereo not drawn)	-0.8	-5.6	0.69	7	9	-0.4	4	i	8
C[C@](N)(Cc1ccc(O)c(O)c1)C(=O)O	4.0	0.9	0.69	-4	13	-2.1	x	i	1
CSc1ccccc1NC(=O)c1cnc2n(c1=O)CCS2	0.1	2.0	0.71	10	13	-1.7	1	i	-15
NS(=O)(=O)c1ccc(NC(=O)c2ccc(S(=O)(=O)N3CCOCC3)o2)cc1	5.0	-1.0	0.65	11	13	3.2	-9	i	2
O=c1cc(C=NNc2ccc([N+](=O)[O-])cc2)[nH]c(=O)[nH]1	x	7.7	x	0	12	-1.6	x	i	13
Cc1cccc(C)c1Nc1nnc(SCc2cc([N+](=O)[O-])cc3c2OCOC3)s1	6.8	7.1	0.67	-14	-13	5.6	-3	i	4
CCCCCc1ccc(OCCOCCn2c[n+](C)c3ccccc32)c(CCCCC)c1	33*	-1.1	0.56	x	x	x	x	x	9
Cc1cc(C)c(CN2CCN(C(=O)Cn3cnc4c(OCc5ccccc5)ncnc43)CC2)c(C)c1	6.3	0.2	0.7	4	-34	7.2	x	x	10
CC(=O)N1CCc2cc(S(=O)(=O)N3CCCCCC3)ccc21	2.4	-1.1	0.66	0	-1	1.0	-3	i	-4
O=C1CC(c2ccc(F)cc2)Sc2nc(-c3ccccc3)c(-c3ccccc3)n21 (stereo not drawn)	5.6	2.8	0.75	x	x	x	19	x	23
CCC(C)(C)NC(=O)C(c1ccc(OC)cc1)N(C(=O)CCC(=O)Nc1cc(C)on1)C1CC1 (stereo not drawn)	0.2	-0.2	0.71	5	9	-3.2	x	i	10
CC(C)CCNC(=O)C(=O)Nc1ccccc1	4.3	-0.5	x	18	16	0.4	-10	i	-2
COc1ccc(C(CCN2CCCCC2)c2c(OC)cc(OC)c3c(-c4ccccc4)cc(=O)oc23)cc1 (stereo not drawn)	-3.4	2.6	0.68	-27	-50	-5.2	-53	i	31
Cc1sc(NC(=O)c2ccc(Br)s2)c(C(N)=O)c1C	-27	0.8	0.7	x	x	x	11	x	-14
C=CCN1CCc2c(cc(O)c(O)c2Cl)C(c2ccccc2)C1 (stereo not drawn)	1.8	-1.4	0.66	-11	-38	0.5	99*	i	-5
C[C@H](CO)N1C[C@H](C)[C@@H](CN(C)C)Oc2c(NC(=O)CCCCCC(=O)Nc3ccccc3N)cccc2C1=O	7.3	0.0	x	-3&6	-6&7	-1.0&0.9	0	i	-6
Cc1cccc(OCC(=O)NC(C)C(=O)N/N=C/c2c(OCc3ccccc3)ccc3ccccc23)c1 (stereo not drawn)	x	-3.7	x	19	22	-13	-13	i	6
Cc1nn(C(C)C)c(C)c1CN1CCN(Cc2ccsc2)C(CCO)C1 (stereo not drawn)	5.0	1.4	0.68	6	13	-0.5	6	i	-2
COc1ccccc1-c1noc2c1C(=O)N(C(=O)OC(C)(C)C)CC2	x	0.5	x	11	6	-0.3	x	i	x
O=C(CSc1nnc(-c2cc3ccccc3cc2O)n1Cc1ccco1)N1CCc2ccccc2C1	2.9	1.2	0.76	x	x	x	9	x	20
COc1cccc(N2CCN(C(=O)c3ccccc3SCC(=O)NCc3ccco3)CC2)c1	-0.7	-2.4	0.66	x	x	x	x	i	2
C=CCNC(=O)C1CC(=O)N(c2ccc(OCC(=O)Nc3ccc(C)cc3)cc2)C1 (stereo not drawn)	1.5	-1.4	0.72	x	x	x	-3	x	0
COc1ccc(-c2cn3c(C)c(C(=O)N4CCN(c5ccc(F)cc5)CC4)sc3n2)cc1	-3.0	1.4	0.77	2	-6	-6.0	-2	i	9
O=C(CN(Cc1ccco1)C(=O)CCC(=O)Nc1ccccn1)NCCc1ccccc1	0.8	0.2	0.68	x	x	x	-4	x	-7
COC(=O)c1ccccc1NC(=O)CNc1ccc(F)c(S(=O)(=O)N2CCOCC2)c1	1.7	1.9	0.63	-26	-26	1.1	0	i	2
COc1ccc(C(=O)OCC(=O)Nc2ccc3c(c2)OCO3)cc1S(=O)(=O)N1CCOCC1	0.8	-5.0	0.69	0	-3	3.2	x	i	1
COc1cc(O)c(C(CC(=O)N2CCCCC2)c2ccc3c(c2)OCO3)c(OC)c1 (stereo not drawn)	0.4	-0.5	0.67	x	x	x	-7	x	-8
Cc1cccc(NC(=O)/C(C#N)=C\c2cc(C)n(-c3ccc(C(=O)O)cc3)c2C)c1	13	-3.7	0.68	-28*	-16*	-7.7*	4	i	10
CNc1nc(SCc2ccc(C)cc2)nc2c1CCCC2	0.0	-0.2	0.64	x	x	x	-8	x	2
COc1cccc(N2CCN(S(=O)(=O)c3cc4c(cc3C)N(C)CCO4)CC2)c1	2.7	2.7	0.71	-2	-6	-3.3	3	i	-6
Cc1ccc(/C(COc2ccccc2O)=N\O)cc1	x	4.0	x	x	x	x	73	x	6
CN(CC1CCCCO1)C(=O)c1cc(COc2ccc(F)cc2Cl)on1 (stereo not drawn)	4.3	1.6	0.69	-7	-8	-3.7	-1	i	-1
Cc1ccc(NC(=O)c2cc3ccccc3o2)cc1	2.2	-1.1	0.69	-5	3	-1.1	-2	i	12
Cc1ccc(CNC(=O)C2CC(c3ccc(C(F)(F)F)cc3)=NO2)o1 (stereo not drawn)	1.5	0.2	0.7	11	16	-3.9	50	i	-15
O=C(O)c1ccc2c(c1Sc1ccccc1)C(=O)c1ccccc1C2=O	11	x	0.69	-14	-10	-2.4	1	i	x

Random excerpt: 3 entries already listed.
SMILES	UCH37 DUB inh	HNF4A DNA FP	E coli growth	rRNA inh HTS	rRNA inh HTS OD600	rRNA inh HTS RFP	ALR H2O2 inh	FGF22 binding	B2AR ag
Cc1cccc(CC(=O)Nc2ccc(C(=O)N3CCCCC3)cc2)c1	-1.0	-1.3	0.66	-4	-2	3.3	-5	i	-4
CCCCS/C(N)=N/N=C/c1cc(C)ccc1O	x	3.3	x	x	x	x	1	x	-1
C=CCNC(=O)C1CC(=O)N(c2ccc(OCC(=O)Nc3ccc(C)cc3)cc2)C1 (stereo not drawn)	1.5	-1.4	0.72	x	x	x	-3	x	0

(cont.)
SMILES	UCH37 DUB inh	HNF4A DNA FP	E coli growth	rRNA inh HTS	rRNA inh HTS OD600	rRNA inh HTS RFP	ALR H2O2 inh	FGF22 binding	B2AR ag
c1ccc(C2c3c(ccc4ccccc34)Oc3ncn4nc(-c5ccco5)nc4c32)cc1 (stereo not drawn)	-0.1	1.8	0.73	x	x	x	-4	x	-12
Cc1ccc(NC(=O)CN(C)C(=O)CSc2ncc(C(F)(F)F)cc2Cl)cc1	3.5	1.8	0.69	x	x	x	-5	x	12
COCCn1c(SCC(=O)NCc2ccco2)nc2cccnc21	1.4	-1.7	0.77	x	x	x	-31	x	0
COc1ccc(/C=C2\SC(=O)N(CC(=O)Nc3ccccc3O)C2=O)cc1OC	-45	-0.6	0.69	-10	-9	2.2	-3	i	9
CCOC(=O)Cc1nnc(NC(=O)CSc2ccc(C)cc2)s1	3.6	5.0	0.67	x	x	x	-5	x	-3
COc1ccc(N2CCN(C(=O)c3cc(=O)c4ccc(C)cc4o3)CC2)cc1	3.4	0.6	0.69	1	12	4.1	-6	i	-2
COC(=O)C1CN(C(=O)COc2ccc(Cl)c(C)c2)c2ccccc2O1 (stereo not drawn)	1.9	-1.6	0.67	-38	-45	-11	0	i	9
COc1c(OC)c2[nH]c(=O)cc3c4ccccc4n(c1=O)c23	i	-8.5	0.72	11	10	1.0	-4	i	-24
COC(=O)c1ccc(-c2ccco2)n1Cc1cccc(C)c1	0.1	5.2	0.69	x	x	x	51	x	7
Cc1ccc(NC(=O)Cn2c(-c3ccc(F)cc3)cnc2SCC(=O)Nc2c(C)cccc2C)cc1	1.5	1.7	0.67	x	x	x	-10	x	5
CC(=O)c1n[nH]nc1NC(=O)c1ccccc1	1.3	-0.6	0.65	x	x	x	0	x	3
COc1ccc(CNC(=O)C2CSC(=O)C2)cc1 (stereo not drawn)	5.5	3.0	0.71	x	x	x	-13	x	-7
O=C(NCc1ccc[n+](CCCCS(=O)(=O)[O-])c1)c1ccc(OC(F)F)cc1	1.8	x	0.68	x	x	x	-2	x	x
COC(=O)C1CCN(C(=O)CC(NC(=O)C(F)(F)F)c2cccs2)CC1 (stereo not drawn)	2.6	-0.3	0.68	-4	3	0.8	-1	i	6
CCCCCC(=O)NC(NC(=S)Nc1ccc(S(N)(=O)=O)cc1)C(Cl)(Cl)Cl (stereo not drawn)	3.7	6.3	0.73	x	x	x	17	x	-12
CC(C)(C)Sc1ccc([N+](=O)[O-])cc1C(=O)Nc1ccncc1	5.7	0.6	0.67	-1	-15	-4.9	-13	i	0
O=C(CSc1nnc(-c2ccccc2)o1)NC1CCCCC1	5.7	3.2	0.68	x	x	x	24	x	-13
COC(=O)c1[nH]c2ccccc2c1Sc1ccccc1	-4.6	2.6	0.72	7	4	1.8	-5	i	4
CCOC(=O)c1c(S(=O)(=O)NCc2ccc(C)o2)c(C)n(C)c1C	4.9	-3.0	0.72	3	3	-0.6	8	i	-2
COc1ccccc1CCN=C(N)NS(=O)(=O)c1ccccc1	1.5	2.9	0.68	3	1	1.1	3	i	-4
O=C(Nc1nccs1)c1ccc2ccccc2c1	1.3	3.6	0.63	-20	-36	-12	0	i	1
CCOc1ccccc1N1CC(C(=O)NCCc2ccc(S(N)(=O)=O)cc2)CC1=O (stereo not drawn)	4.7	-1.9	0.7	x	x	x	-9	x	9
Cc1cc(C=O)c(C)n1-c1sc2c(c1C(=O)O)CCCC2	6.4	1.0	0.66	x	x	x	21	x	1
CC(C)c1ccccc1OCCNC(=O)c1cccnc1	0.6	-1.5	0.65	-15	-6	3.4	3	i	-1
CNc1cccccc1=S	11	-23	0.66	x	x	x	-10	x	6
CN1CCN(C(=O)c2ccc(OCCOc3ccccc3)cc2)CC1	5.2	1.3	0.66	x	x	x	-13	x	2
COc1cc(C(=O)NC2(C(F)(F)F)NC(=O)N(CCCc3ccccc3)C2=O)cc(OC)c1OC (stereo not drawn)	4.8	-9.9	0.69	-35	-59	2.7	-2	i	1
Cc1ccnc(NS(=O)(=O)c2ccc(NC(=O)CC(C)c3ccccc3)cc2)n1 (stereo not drawn)	-0.9	-0.4	0.72	7	-1	1.2	0	i	6
